Bioassay records: PubChem, Broad Institute
UUG fidelity = modulators of start codon recognition fidelity in yeast; S. cerevisiae UUG-firefly luciferase reporter, luminescence/redox ratio; AID 602363; activity score, % at 18.7 µM; 350,000 tested, 0.13% active;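 active = replicate mean at a twofold rise or more, about +100% in these data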;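 also: firefly luciferase made from a UUG start codon reports start codon fidelity; reporter light over untreated wells divided by growth signal over untreated wells; some hits fall short of that in this replicate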
Env fusion inh = HIV envelope-mediated fusion inhibition; HeLa-JRFL Env/CEM21 cell fusion, luciferase; inhibition, % at 12.3 µM; 360,000 tested, 1.1% active;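 active = mean replicate inhibition score of at least 50 and every replicate individually at or above 50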;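 also: 0% = plate neutral controls and 100% = maraviroc near 300 nM; one replicate is shown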
* = called active by the depositor; [ ] = remark or other dose. This is a subset; count on the stated rates, not on these rows.

SMILES	UUG fidelity	Env fusion inh
COc1ccc(S(=O)(=O)N(C)C[C@@H]2Oc3cc(C4=CCCC4)ccc3S(=O)(=O)N([C@H](C)CO)C[C@@H]2C)cc1	14.5	22.5[16.7 µM]
C[C@H](CO)N1C[C@H](C)[C@H](CN(C)CC2CCOCC2)Oc2ncc(C#Cc3cccc(F)c3)cc2C1=O	37.2	25.8[16.7 µM]
CC(C)C#Cc1cnc2c(c1)C(=O)N([C@H](C)CO)C[C@H](C)[C@H](CN(C)C(=O)c1cccc(F)c1)O2	2.8	-6.0[16.7 µM]
CO[C@H]1CN(C)C(=O)c2ccc(NC(C)=O)cc2OC[C@@H](C)N(S(C)(=O)=O)C[C@@H]1C	-2.1	4.6[16.7 µM]
COc1ccc(S(=O)(=O)Nc2cccc3c2O[C@H](CN(C)C(=O)Nc2cccc4ccccc24)[C@@H](C)CN([C@H](C)CO)C3=O)cc1	1.1	-106.0[16.7 µM]
CCC(=O)Nc1ccc2c(c1)OC[C@@H](C)N(C(=O)CN1CCOCC1)C[C@@H](C)[C@@H](OC)CN(C)C2=O	10.0	4.4[16.7 µM]
COc1ccc(S(=O)(=O)N(C)C[C@H]2Oc3c(NC(=O)Nc4ccc(C(F)(F)F)cc4)cccc3C(=O)N([C@H](C)CO)C[C@H]2C)cc1	3.5	5.9[16.7 µM]
COCC(=O)N(C)C[C@@H]1Oc2cc(-c3ccccc3)ccc2S(=O)(=O)N([C@H](C)CO)C[C@@H]1C	-4.1	0.8[16.7 µM]
Cc1noc(C)c1S(=O)(=O)N(C)C[C@@H]1OCCCC[C@@H](C)Oc2ccc(NS(=O)(=O)c3cccs3)cc2C(=O)N([C@H](C)CO)C[C@@H]1C	-1.5	-47.1[16.7 µM]
CC(C)C#Cc1ccc2c(c1)O[C@@H](CN(C)C(=O)Nc1ccccc1)[C@H](C)CN([C@@H](C)CO)S2(=O)=O	-5.8	3.2[16.7 µM]
CC(=O)Nc1ccc2c(c1)C(=O)N(C)[C@@H]1CC[C@@H](CC(=O)NCc3ccccc3Cl)O[C@H]1CO2	3.8	-17.7[16.7 µM]
Cc1cc(C(=O)Nc2cccc3c2O[C@@H](CN(C)S(=O)(=O)c2ccc(F)cc2)[C@@H](C)CN([C@H](C)CO)C3=O)n(C)n1	2.5	18.3[16.7 µM]
COc1ccc(CN(C)C[C@@H]2OCCCC[C@H](C)Oc3ccc(NC(=O)NC4CCCCC4)cc3C(=O)N([C@H](C)CO)C[C@H]2C)cc1	29.1	-2.9[16.7 µM]
C[C@@H]1CN([C@@H](C)CO)C(=O)c2cccc(NC(=O)C3CCOCC3)c2O[C@H]1CN(C)CC1CCCCC1	-2.8	28.7[16.7 µM]
C[C@H](CO)N1C[C@H](C)[C@@H](CN(C)CC2CCCCC2)Oc2ccc(NS(=O)(=O)c3cn(C)cn3)cc2C1=O	-3.5	8.4[16.7 µM]
C[C@H](CO)N1C[C@H](C)[C@@H](CN(C)Cc2ccncc2)Oc2cc(-c3ccccc3)ccc2S1(=O)=O	-7.2	37.0[16.7 µM]
Cc1ccc(S(=O)(=O)N(C)C[C@H]2Oc3ccc(NS(C)(=O)=O)cc3CC(=O)N([C@@H](C)CO)C[C@H]2C)cc1	12.3	-22.8[16.7 µM]
COc1ccc(NC(=O)Nc2ccc3c(c2)CC(=O)N([C@@H](C)CO)C[C@H](C)[C@@H](CN(C)Cc2ccc(Cl)c(Cl)c2)O3)cc1	-1.4	-8.4[16.7 µM]
C[C@@H]1CN([C@H](C)CO)C(=O)c2cc(NC(=O)Cc3ccccc3)ccc2O[C@H]1CN(C)S(=O)(=O)c1ccccc1	5.9	-10.8[16.7 µM]
CO[C@@H]1CN(C)C(=O)c2cc(NC(=O)c3cnccn3)ccc2OC[C@H](C)N(C)C[C@H]1C	-5.2	-9.4[16.7 µM]
C[C@@H]1CN([C@H](C)CO)C(=O)Cc2cc(NC(=O)Cn3cnnn3)ccc2O[C@@H]1CN(C)Cc1ccc(Oc2ccccc2)cc1	19.1	-12.0[16.7 µM]
O=C(CCN1CCCCC1)N[C@@H]1CC[C@@H](CCNC(=O)c2cc(Cl)cc(Cl)c2)O[C@@H]1CO	6.3	-3.6[16.7 µM]
COc1ccc(S(=O)(=O)Nc2ccc3c(c2)C(=O)N([C@H](C)CO)C[C@@H](C)[C@H](CN(C)C(=O)Nc2ccc(F)cc2)OCCCC[C@H](C)O3)cc1	-4.9	-40.5[16.7 µM]
COc1ccc(NC(=O)N2C[C@@H](O)COC[C@H]3O[C@H](CC(=O)N4CCCCC4)CC[C@@H]32)cc1	-12.5	6.4[16.7 µM]
Cc1ccc(S(=O)(=O)N(C)C[C@@H]2Oc3c(NC(=O)Nc4ccc(F)cc4)cccc3C(=O)N([C@H](C)CO)C[C@H]2C)cc1	-5.0	-46.6[16.7 µM]

4 of the compounds above, in markdown.
| mol | UUG fidelity | Env fusion inh |
| --- | --- | --- |
| C[C@@H]1CN([C@H](C)CO)C(=O)c2cc(NC(=O)Cc3ccccc3)ccc2O[C@H]1CN(C)S(=O)(=O)c1ccccc1 | 5.9 | -10.8[16.7 µM] |
| CO[C@@H]1CN(C)C(=O)c2cc(NC(=O)c3cnccn3)ccc2OC[C@H](C)N(C)C[C@H]1C | -5.2 | -9.4[16.7 µM] |
| C[C@@H]1CN([C@H](C)CO)C(=O)Cc2cc(NC(=O)Cn3cnnn3)ccc2O[C@@H]1CN(C)Cc1ccc(Oc2ccccc2)cc1 | 19.1 | -12.0[16.7 µM] |
| O=C(CCN1CCCCC1)N[C@@H]1CC[C@@H](CCNC(=O)c2cc(Cl)cc(Cl)c2)O[C@@H]1CO | 6.3 | -3.6[16.7 µM] |

(further entries)
SMILES	UUG fidelity	Env fusion inh
COC(=O)C[C@H]1CC[C@H]2[C@H](COc3ccc(NC(=O)c4cccc(OC)c4)cc3C(=O)N2C)O1	12.6	2.8[16.7 µM]
COc1ccc(NC(=O)Nc2ccc3c(c2)C(=O)N([C@@H](C)CO)C[C@@H](C)[C@@H](CN(C)Cc2ccc(Cl)c(Cl)c2)OCCCC[C@@H](C)O3)cc1	4.3	19.8[16.7 µM]
Cc1noc(C)c1S(=O)(=O)Nc1ccc2c(c1)CC(=O)N([C@H](C)CO)C[C@@H](C)[C@H](CN(C)C(=O)NC1CCCCC1)O2	1.6	-11.5[16.7 µM]
C[C@H]1CN([C@@H](C)CO)C(=O)Cc2cc(NC(=O)Cc3cn(C)c4ccccc34)ccc2O[C@H]1CN(C)Cc1ccc(C(=O)O)cc1	-13.2	-3.2[16.7 µM]
Cc1ccc(S(=O)(=O)N[C@H]2C=C[C@H](CC(=O)N3CCc4ccccc4C3)O[C@H]2CO)cc1	-2.5	-1.0[16.7 µM]
C[C@@H]1CN([C@H](C)CO)C(=O)Cc2cc(NC(=O)CCC(F)(F)F)ccc2O[C@@H]1CN(C)S(=O)(=O)c1ccc(Cl)cc1	17.0	22.2[16.7 µM]
CCCNC(=O)N[C@H]1C=C[C@H](CC(=O)NC2CCC2)O[C@H]1CO	-2.4	-2.8[16.7 µM]
COc1cccc(CNC(=O)C[C@H]2C=C[C@@H](NC(=O)C3CCOCC3)[C@H](CO)O2)c1	-12.7	10.1[16.7 µM]
Cc1ccc(S(=O)(=O)N(C)C[C@@H]2Oc3c(NS(=O)(=O)c4ccccc4)cccc3C(=O)N([C@@H](C)CO)C[C@H]2C)cc1	-11.0	0.2[16.7 µM]
C[C@@H]1CCCCO[C@H](CN(C)C(=O)CCC(F)(F)F)[C@@H](C)CN([C@@H](C)CO)C(=O)c2cc(NS(=O)(=O)c3ccc(F)cc3)ccc2O1	2.7	13.3[16.7 µM]
C[C@H]1CN([C@@H](C)CO)C(=O)Cc2cc(NC(=O)CCCCCC(=O)Nc3ccccc3N)ccc2O[C@@H]1CN(C)Cc1ccc2c(c1)OCO2	25.5	30.6[16.7 µM]
CCCN1C[C@H](C)[C@H](OC)CN(C)C(=O)c2ccc(NS(=O)(=O)c3ccccc3)cc2OC[C@@H]1C	37.7	1.1[16.7 µM]
C[C@@H]1CN([C@@H](C)CO)C(=O)Cc2cc(NC(=O)C3CC3)ccc2O[C@@H]1CN(C)S(=O)(=O)c1cccs1	-11.0	12.5[16.7 µM]
CCC(=O)N(C)C[C@@H]1Oc2ncc(C3=CCCC3)cc2C(=O)N([C@H](C)CO)C[C@H]1C	5.9	-7.5[16.7 µM]
Cc1noc(C)c1NC(=O)Nc1ccc2c(c1)C(=O)N([C@@H](C)CO)C[C@@H](C)[C@@H](CN(C)S(=O)(=O)c1ccc(F)cc1)OCCCC[C@H](C)O2	11.8	-16.2[16.7 µM]
C[C@H](CO)N1C[C@H](C)[C@@H](CN(C)C(=O)CN(C)C)Oc2cc(-c3cncnc3)ccc2S1(=O)=O	-5.1	5.5[16.7 µM]
O=C(Nc1ccc(F)cc1)N[C@@H]1CC[C@@H](CCNS(=O)(=O)c2cccc(Cl)c2)O[C@@H]1CO	-7.7	14.3[16.7 µM]
Cc1noc(C)c1NC(=O)N(C)C[C@H]1Oc2ccc(NS(=O)(=O)c3c(C)noc3C)cc2C(=O)N([C@@H](C)CO)C[C@H]1C	6.8	-4.6[16.7 µM]
C[C@@H]1CCCCO[C@H](CN(C)Cc2ccc(C(F)(F)F)cc2)[C@H](C)CN([C@H](C)CO)C(=O)c2cc(NC(=O)C3CCCCC3)ccc2O1	9.8	46.9[16.7 µM]
C[C@H](CO)N1C[C@H](C)[C@H](CN(C)C(=O)CCC(F)(F)F)OCCCC[C@H](C)Oc2ccc(NC(=O)CCCN(C)C)cc2C1=O	2.5	2.8[16.7 µM]
C[C@@H]1CN([C@@H](C)CO)C(=O)c2cc(C#CC(C)(C)O)cnc2O[C@H]1CN(C)C(=O)C1CCOCC1	7.8	7.0[16.7 µM]
CCS(=O)(=O)NCC[C@H]1CC[C@H](NC(=O)Cc2ccccn2)[C@H](CO)O1	10.3	4.4[16.7 µM]
CCCC#Cc1cnc2c(c1)C(=O)N([C@@H](C)CO)C[C@H](C)[C@H](CN(C)C(=O)C1CC1)O2	17.4	6.6[16.7 µM]
COc1cccc(-c2ccc3c(c2)O[C@H](CN(C)C(=O)C2CCC2)[C@H](C)CN([C@@H](C)CO)S3(=O)=O)c1	-11.0	29.4[16.7 µM]
C[C@@H]1CN([C@H](C)CO)C(=O)c2cccc(NS(C)(=O)=O)c2O[C@H]1CN(C)Cc1ccc(C(F)(F)F)cc1	5.4	35.5[16.7 µM]

(further entries)
SMILES	UUG fidelity	Env fusion inh
OC[C@@H]1[C@H]2c3ccccc3OC1(CO)N=C1SCc3ccccc3CN12	-16.8	5.1[16.7 µM]
COc1ccc(S(=O)(=O)N[C@H]2C=C[C@@H](CC(=O)NCc3ccccc3F)O[C@@H]2CO)cc1	-20.3	6.8[16.7 µM]
CO[C@H]1CN(C)C(=O)c2cc(NC(=O)C3CCCCC3)ccc2OC[C@H](C)NC[C@@H]1C	-7.4	6.4[16.7 µM]
COc1cccc(-c2cnc3c(c2)C(=O)N([C@@H](C)CO)C[C@@H](C)[C@H](CN(C)Cc2ccc(F)cc2)O3)c1	4.4	11.7[16.7 µM]
O=C(N[C@H]1CC[C@@H](CCNC(=O)C2CC2)O[C@@H]1CO)c1ccncc1	0.4	22.7[16.7 µM]
C[C@@H]1CN([C@@H](C)CO)C(=O)Cc2cc(NS(=O)(=O)c3cn(C)cn3)ccc2O[C@H]1CN(C)C(=O)NC1CCCCC1	-12.4	-1.6[16.7 µM]
COc1ccc(CN(C)C[C@H]2OCCCC[C@@H](C)Oc3ccc(NC(=O)CCC(F)(F)F)cc3C(=O)N([C@H](C)CO)C[C@@H]2C)cc1	-6.1	4.5[16.7 µM]
COC(=O)C[C@H]1CC[C@@H]2[C@@H](COc3ccc(NS(=O)(=O)c4cccc(F)c4)cc3C(=O)N2C)O1	-1.1	-18.0[16.7 µM]
C[C@H]1CN([C@@H](C)CO)S(=O)(=O)c2ccc(C3=CCCCC3)cc2O[C@H]1CN(C)C(=O)C1CC1	4.0	21.4[16.7 µM]
C[C@@H]1CN([C@@H](C)CO)C(=O)c2cc(C#CCN(C)C)cnc2O[C@H]1CN(C)C(=O)Cc1ccncc1	-12.7	7.6[16.7 µM]
CCCN(C)C[C@H]1OCCCC[C@H](C)Oc2ccc(NC(=O)Cc3ccccc3)cc2C(=O)N([C@H](C)CO)C[C@H]1C	15.4	-4.2[16.7 µM]
COc1cccc(S(=O)(=O)N[C@@H]2CC[C@H](CCNC(=O)Cc3ccncc3)O[C@H]2CO)c1	-4.7	4.4[16.7 µM]
CCc1cnc(N2[C@@H](C#N)[C@H](c3ccc(C#Cc4ccccc4F)cc3)[C@@H]2CO)s1	-20.2	59.1*[16.7 µM]
CCCNC(=O)C[C@H]1C[C@H]2c3cc(NC(=O)Nc4ccccc4)ccc3O[C@H]2[C@H](CO)O1	1.2	-29.8[16.7 µM]
C[C@@H]1CCCCO[C@H](CN(C)C(=O)C2CCCCC2)[C@@H](C)CN([C@H](C)CO)C(=O)c2cc(NC(=O)Nc3ccc(C(F)(F)F)cc3)ccc2O1	-18.6	5.3[16.7 µM]
COc1cccc(C#Cc2ccc3c(c2)O[C@H](CN(C)C(C)=O)[C@@H](C)CN([C@@H](C)CO)S3(=O)=O)c1	-7.0	6.5[16.7 µM]
CCCN1C[C@@H](C)[C@@H](OC)CN(C)C(=O)c2ccc(NS(C)(=O)=O)cc2OC[C@H]1C	9.4	1.9[16.7 µM]

Compound profiles (already shown). Screens in order: UUG fidelity, Env fusion inh
OC[C@@H]1[C@H]2c3ccccc3OC1(CO)N=C1SCc3ccccc3CN12 reads -16.8, 5.1[16.7 µM]
C[C@@H]1CN([C@@H](C)CO)C(=O)Cc2cc(NS(=O)(=O)c3cn(C)cn3)ccc2O[C@H]1CN(C)C(=O)NC1CCCCC1 reads -12.4, -1.6[16.7 µM]
